Ba CapD inh: inhibitors of Bacillus anthracis CapD enzyme; actives 0.23% (n = 140,000); z-score (concentration not given with the values); purified CapD enzyme, fluorescence intensity read-out; hits give low values; some hits fall short of the stated cut;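 active = z-score under -4 in either of two replicates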;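 note: stock transfer was 100 nL into about 40 µL; score is relative to mean and spread of the plate; one replicate is shown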
AID504770: E. coli YBA685 growth inhibition, screen for V. cholerae RctB inhibitors. E. coli YBA685 rctB-dependent plasmid, OD600 growth, 3 h; hits give low values. z-score (concentration not given with the values). AID 504770. actives 0.27% (n = 130,000);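 active = z-score under -2 on both plates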;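 note: wells of about 30 µL received 100 nL stock; score is relative to mean and SD of the test wells; the first replicate is given; strong numbers were not always called active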
Numbers without * were called inactive; . = not tested or not shown; & = joins results of further samples. Not all compounds are listed (hit frequency here may not be typical).

SMILES	Ba CapD inh	AID504770
Cc1c(N2C(=O)/C(=C\c3ccc(N(C)C)cc3)N(C)C2=S)c(=O)n(-c2ccccc2)n1C	.	0.3
COC(=O)c1cccc(CSc2nnc(-c3c[nH]c4ccccc34)o2)c1	.	0.65
O=C(N/N=C/c1cnc(N2CCCCC2)s1)c1ccc(C(F)(F)F)cc1	-0.345	.
N#CCn1ccn(-c2ccc(F)c(Cl)c2)c(=O)c1=O	.	-1.25
Cc1ccccc1N1C(=O)C(Oc2ccc(Cl)cc2)C1CNC(C)C (stereo not drawn)	-0.425	-1.2
O=c1[nH]nc(SC(F)(F)C(F)(F)C(F)(F)F)c(=O)[nH]1	.	-0.35
O=C(OCc1cccc(OCc2ccccc2)c1)N1CCN(c2cccc3[nH]ccc23)CC1	0.695	.
CCN(Cc1ccccc1)Cc1c(C)n(C)n(-c2ccccc2)c1=O	.	-0.15
c1ccc2sc(N3CCNCC3)nc2c1	0.385	-1
COc1ccccc1Nc1cc(C(=O)NCCN2CCC(Cc3ccccc3)CC2)c2ccccc2n1	0.135	-0.1

The final six compounds of the part above come first, to join the parts:
SMILES	Ba CapD inh	AID504770
Cc1ccccc1N1C(=O)C(Oc2ccc(Cl)cc2)C1CNC(C)C (stereo not drawn)	-0.425	-1.2
O=c1[nH]nc(SC(F)(F)C(F)(F)C(F)(F)F)c(=O)[nH]1	.	-0.35
O=C(OCc1cccc(OCc2ccccc2)c1)N1CCN(c2cccc3[nH]ccc23)CC1	0.695	.
CCN(Cc1ccccc1)Cc1c(C)n(C)n(-c2ccccc2)c1=O	.	-0.15
c1ccc2sc(N3CCNCC3)nc2c1	0.385	-1
COc1ccccc1Nc1cc(C(=O)NCCN2CCC(Cc3ccccc3)CC2)c2ccccc2n1	0.135	-0.1
COC(=O)Cn1c(=NC(=O)C2CCCCC2)sc2cc(OC)ccc21	.	-0.2
Cc1cccc(NC2=C(C#N)C(=O)NC3(CCCC3)S2)c1	0.705	1.2
O=C(CCc1ccccc1)Nc1nnc(CCN2CCCCC2)s1	.	0.9
CC1CCCC(C)N1NC(=O)c1ccc(-c2nc3ccccc3s2)o1 (stereo not drawn)	.	0.9
Cc1[nH]c2ccccc2c1C=NC1CCS(=O)(=O)C1 (stereo not drawn)	-0.03	0.55
O=C(Nc1nnc(C2CCCCC2)s1)C1c2ccccc2Oc2ccccc21	14.1	-0.45
FC(F)(F)c1cccc(Nc2cc(-c3ccccc3)nc3ncnn23)c1	1.52	-0.05
CC(C)C(=O)n1nc(-c2ccc(Cl)cc2)nc1NCc1ccccc1	1.51	-0.95
COC(CNC(=O)C1CCN(C(=O)c2cc3oc(C)cc3n2Cc2c(F)cccc2Cl)CC1)OC	-0.48	-0.45
CNC(=O)NC(=O)CSc1nc2sccc2c(=O)n1-c1ccccc1	.	-0.95
O=C(CSc1n[nH]c(=O)n1Cc1ccccc1)NC1CC1	.	1.3
COc1ccc2nc(NC(=O)c3ccccn3)sc2c1	-0.685	-0.75
Cc1cc(C)cc(N2C(=O)/C(=C/c3ccc(OC(C)C(=O)O)cc3)C(=O)NC2=S)c1 (stereo not drawn)	-0.87	.
Cc1onc(-c2ccccc2Cl)c1C(=O)NCC12CC3CC(CC(C3)C1)C2	9.79	-0.8
Cn1c2c(c(=O)n(C)c1=O)C(Nc1nc3ccccc3s1)(C(F)(F)F)C(=O)N2 (stereo not drawn)	-1.11	1.95
CS(=O)(=O)N1CCSC1c1ccccc1Cl (stereo not drawn)	-0.29	-0.45
COc1cc(NS(=O)(=O)c2ccc(Cl)c(C(=O)Nc3ccc([N+](=O)[O-])cc3)c2)c(OC)cc1Cl	-0.32	.
NCCc1ccccn1	.	1
CSc1ncccc1C(=O)Nc1ccc2c(c1)C(=O)OC2	-1.21	0.45
CC(=O)N1CCN(C(C)=O)C2(CCCCC2)C1	.	-0.7

Given with each value named: 4 of the compounds above.
Cc1onc(-c2ccccc2Cl)c1C(=O)NCC12CC3CC(CC(C3)C1)C2
  Ba CapD inh: 9.79
  AID504770: -0.8

Cn1c2c(c(=O)n(C)c1=O)C(Nc1nc3ccccc3s1)(C(F)(F)F)C(=O)N2 (stereo not drawn)
  Ba CapD inh: -1.11
  AID504770: 1.95

Cc1cc(C)cc(N2C(=O)/C(=C/c3ccc(OC(C)C(=O)O)cc3)C(=O)NC2=S)c1 (stereo not drawn)
  Ba CapD inh: -0.87
  AID504770: .

COc1ccc2nc(NC(=O)c3ccccn3)sc2c1
  Ba CapD inh: -0.685
  AID504770: -0.75

More entries
SMILES	Ba CapD inh	AID504770
CC(O)CN1CN=C(SCc2ccc(Cl)cc2)NC1 (stereo not drawn)	0.83	-0.2
O=C(OCc1nnc(-c2ccccc2)o1)c1ccccc1N/C=C/C(=O)C(F)(F)F	.	-1.5
O=C1c2ccccc2S(=O)(=O)N1Cc1ccc(Cl)cc1Cl	0.6	0.3
Cc1ccccc1N1C(=O)C(Oc2ccc(Cl)cc2)C1CNc1ccccc1 (stereo not drawn)	-0.09	0.8
Cc1cccc(N(C)C(=O)c2coc(=O)c3ccccc23)c1	0.235	.
O=C1CC(N2CCN(S(=O)(=O)c3ccc(Cl)cc3)CC2)C(=O)N1c1ccccc1Cl (stereo not drawn)	.	-0.1
CN1C(=O)C(=Cc2cccs2)C(=O)N(C)C1=S	1.02	-0.75
O=C(c1ccc(COc2cc(Cl)ccc2Cl)o1)N1CCSCC1	1.81	1.7
COc1ccc(N(CC(=O)O)S(=O)(=O)c2c(C)noc2C)cc1	-0.415	-0.8
COc1ccccc1NC(=O)Cn1cnc2sc(C(=O)Nc3ccc(Oc4ccccc4)cc3)c(C)c2c1=O	1.67	.
CCSc1nc(N)c(NC(=O)c2ccc(OC)c(OC)c2)c(=O)[nH]1	.	0.3
FC(F)(F)c1cccc(COn2c(-c3ccccc3)nc3ncccc32)c1	0.05	.
CCn1ncc(C2=NOC(C(=O)NCc3ccc(Cl)cc3)C2)c1C (stereo not drawn)	0.195	-0.5
Cc1cc(C)cc(Sc2ccc3nnc(-c4ccccc4)n3n2)c1	1.12	-0.35
O=C(Nc1ccc(OC(F)(F)F)cc1)c1csc(-c2ccccc2)n1	-0.845	.
CCCC(=O)Nc1ccc2nc(SCC(=O)N3CCCC3)sc2c1	.	-1.05
COc1ccc(-c2cc(N)n(-c3ccc(Cl)c(Cl)c3)n2)cc1	-0.765	0.2
COc1ccccc1OCCNS(=O)(=O)c1ccccc1C(F)(F)F	.	0.4
O=C(CCCC(=O)Nc1ccccc1)Nc1ccccc1	0.305	-0.85
CC(NC(=O)COc1cc(=O)n(C)c2ccccc12)c1ccc2c(c1)OCCO2 (stereo not drawn)	-0.63	-0.3
O=C(OCCOc1ccc(Br)cc1)c1ccc(Br)o1	.	0.35
Cc1ccc(CN2CCCN(CC(N)=O)S2(=O)=O)cc1	0.32	0
N#Cc1ccccc1OCC(=O)Nc1ccccc1	0.42	-0.85
Cc1ccccc1N(CC(=O)NC1CCCC1)C(=O)c1csnn1	.	1.45
Oc1c(-c2nc3ccccc3s2)sc2ncccc12	.	0.95
CCN(CC)C(=O)Cn1c(=O)sc2ccccc21	.	0.15
CC(C)N(C(=O)CSc1n[nH]c(-c2cccs2)n1)C(C)C	.	-4*
CC1(C)Cc2ccccc2C(=NC(Cc2c[nH]c3ccccc23)C(=O)O)N1 (stereo not drawn)	0.64	-0.45
CCOC(=O)c1ccc(NC2Nc3cc(C)nn3S2)cc1 (stereo not drawn)	0.29	2.8
CN(C)c1ccc(/C=c2\s/c(=C(/C#N)C(=O)NCCN3CCOCC3)n(Cc3ccco3)c2=O)cc1	.	-1.1
OCC1CCCCCN1 (stereo not drawn)	0.155	-0.5
CCN(CC)C(=O)Cc1noc2ccccc12	-2.92	-0.55
O=S(=O)(O/N=C1\CCSc2ccc(F)cc21)c1ccc(Cl)cc1	-0.16	.
O=C(NCc1ccccn1)c1ccc2nc(N3CCCCC3)sc2c1	2.22	1.1
CC1CC(=O)C=C(O)C1C(=O)OC(C)(C)C (stereo not drawn)	-0.09	-0.85
CC1CCC(C(C)C)C(OC(=O)c2cccc(N3C(=O)C4C5c6ccccc6C(c6ccccc65)C4C3=O)c2)C1 (stereo not drawn)	-0.135	.
O=c1oc2c(-c3ccc(F)cc3)cc(O)cc2s1	0.615	0.05
COc1cccc(-c2nn3c(Cn4cnc5ccccc54)nnc3s2)c1	.	-0.25
CCC(=O)Nc1ccccc1C(=O)O	0.895	-0.5
Cc1ccc(S(=O)(=O)Nc2ccc3oc(C)c(C(=O)NN)c3c2)cc1	0.115	-0.15
CCN(CC)CCCNC(=O)c1sc2ncnc(N3CCN(c4ccccc4F)CC3)c2c1C	-0.475	.
CN(C)S(=O)(=O)c1ccc(C(=O)Nc2cc(C(F)(F)F)ccc2N2CCOCC2)cc1	.	-0.05
CC1CCCC(NS(=O)(=O)c2cccs2)C1C (stereo not drawn)	.	0.25
Cc1cc(C(=O)CSc2nnc(-c3ccc4c(c3)OCO4)o2)c(C)n1C1CCS(=O)(=O)C1 (stereo not drawn)	.	0.85
O=C(O)C1CN(C(=O)c2ccccc2)c2cc(Cl)ccc2O1 (stereo not drawn)	0.165	-0.2
CC(=O)N1CCC(Nc2ccc3c(c2)CCN3C(C)=O)CC1	-0.05	.
CC(Oc1ccc(Cl)cc1)c1ccnn1S(=O)(=O)c1ccc(Cl)cc1 (stereo not drawn)	-0.175	.
CC(C)C(C(=O)O)n1c(-c2cccs2)n[nH]c1=S (stereo not drawn)	.	0.1
O=C(Cn1nc(C(=O)O)c2ccccc2c1=O)NC1CCCC1	.	-0.4
CN1CCN(C(=O)c2c(Cl)nc3sccn23)CC1	-0.01	1.25
(listing goes on)
SMILES	Ba CapD inh	AID504770
CC(C)Sc1n[nH]c(=O)n1-c1ccccc1	10.5	0.65
Cc1ccc(N(CC(=O)Nc2ccc(C)cc2C)S(=O)(=O)c2c(C)noc2C)cc1	-0.51	-0.4
O=S(=O)(c1ccc(Cl)cc1)N1CCCCC1c1cccnc1 (stereo not drawn)	.	-1.6
Cc1ccccc1Nc1nn2c(=O)c3ccc(C(=O)NCCC4=CCCCC4)cc3nc2s1	7.99	0.5
COc1ccc(/C=c2\sc3nnc(-c4ccccc4Cl)n3c2=O)c(OC)c1	-0.175	.
N/C(=N\OC(=O)c1cccs1)c1cccc([N+](=O)[O-])c1	0	.
Cc1ccc2[nH]c3c(=O)n(CCCN4CCCC4)cnc3c2c1	45.4	0.45
NNC(=O)COc1ccccc1Cc1ccccc1	.	0.25
N#C/C(=C\c1[nH]c2ccccc2c1O)C(=N)N1CCOCC1	0.06	-0.45
O=c1cc(N2CCN(c3ccccc3)CC2)[nH]c(=O)n1-c1ccc(Br)cc1	0.205	-0.45
CC(C)CC1Nc2ccc(C(=O)NCC3COc4ccccc4O3)cc2NC1=O (stereo not drawn)	3.83	-0.9
COC(=O)c1cc(C)sc1NC(=O)CN1CCN(Cc2ccccc2)CC1	1.62	-0.25
CCOc1cc(C2C3=C(CC(C)(C)CC3=O)NC3=C2C(=O)CC(C)(C)C3)cc(Br)c1O	0.355	-1
Cc1cc(NC(=O)CCc2nc(C3=CCN(C)CC3)no2)no1	0.905	-0.1
Cc1onc(-c2ccccc2Cl)c1C(=O)Nc1cccc2nsnc12	-0.07	0.1
COc1ccc(Nc2nc(C(=O)NCc3ccccc3)cs2)cc1	-0.265	0.15
Cc1ccc(-n2c(=O)c3cccnc3n2CC(=O)NCc2ccccc2Cl)cc1C	117	-0.5
CN1CCN(C(=O)C2CCN(S(C)(=O)=O)CC2)CC1	.	-0.85
O=C(Nc1ccc2nc3c(=O)[nH]c(=O)[nH]c3nc2c1)C(F)(F)F	0.21	-0.15
CCC(=O)NCc1nc2ccccc2n1Cc1ccc(Cl)cc1	-0.285	-0.95
CC(Sc1nnnn1Cc1cccs1)C(=O)Nc1ccc2c(c1)OCCO2 (stereo not drawn)	.	0.7
O=C(Cn1c(-c2ccccc2)noc1=O)NCc1ccccc1	.	-0.35
O=C(Nc1nnc(-c2ccc(Cl)cc2Cl)s1)c1ccc(S(=O)(=O)N2CCCC2)cc1	1.24	.
Cn1c(CSc2cccs2)nnc1SCc1ccccc1	-0.185	-1.35
O=C(CSc1ncccc1C(F)(F)F)Nc1ccc(C(F)(F)F)cc1	-0.495	1.85
Cc1cc(C)c(/C=C(\C#N)S(=O)(=O)c2ccccc2)[nH]1	-0.815	0.15
Cc1nc(NC(=O)CSc2ccc3c(c2)OCCO3)c(Cl)cc1Cl	.	0.2
Cc1cc2oc(=O)cc(CSc3nnc(-c4ccoc4C)n3C)c2cc1C	.	1.15
Cc1ccc(CN2C(=O)CSc3ccc(C(=O)NCC4CCCO4)cc32)cc1 (stereo not drawn)	-0.635	-2.05
NNC(=O)c1ccncc1	2.16&0.73	0.2
CCOC(=O)c1c(-c2ccccc2)oc2cc(Br)c(OC(=O)c3ccco3)cc12	1.76	.
Cc1cc(Cl)ccc1OCC(=O)Oc1ccc2c(c1)OCO2	.	-0.75
CCOC(=O)C1=C(C)N=c2s/c(=C/c3ccc(N4CCN(C)CC4)o3)c(=O)n2C1c1ccc(F)cc1 (stereo not drawn)	-0.36	.
CCc1ccc2oc(-c3cc(N=Cc4ccccc4O)ccc3O)nc2c1	-0.8	0.95
O=C(CNS(=O)(=O)c1ccc(Cl)cc1)NN=C1CCCCC1	.	-0.1
O=C1Nc2ccccc2O/C1=C\c1ccc(C(=O)NCCN2CCOCC2)cc1	22	1.1
OC(COC1=NCNc2cc(Cl)ccc21)c1ccc(F)cc1 (stereo not drawn)	105	0.55
CCC(C)N(C(=O)CSc1nc2ccccc2c(=O)n1-c1ccccc1)C1CCS(=O)(=O)C1 (stereo not drawn)	.	2
Cc1c(/C=N/O)c2ccccn2c1C(=O)c1ccc(F)cc1	-1.04	0.4
CCOc1ccc(N2C(=O)/C(=C\c3cccc(F)c3)S(=O)(=O)C2c2cccc([N+](=O)[O-])c2)cc1 (stereo not drawn)	-1.28	.

Bioassay records (PubChem BioAssay)
